# Anthrax LT inh – inhibitors of anthrax lethal toxin internalization; Cells, anthrax lethal toxin internalization, FRET ratio (460/530); Potency, µM (doses to about 40 µM), for inactives: at the highest dose activity change, negative = inhibition, most hits filed as inhibitors; actives 0.67% (n = 70,000); AID 912; active = well fitted falling ratio curve with the 530 nm signal flat; inconclusive = other ratio curves, or a change in one channel alone; inactive = flat curves in the ratio and both channels; the % refers to the ratio; also: % is scaled to controls: 0 for no effect and ±100 for the full control effect; nearly all actives have a fitted effect of over 50% in size; tested in ME-180 cells; beta-lactamase reporter
# Prx2 Sm inh – inhibitors of Schistosoma mansoni peroxiredoxin 2. S. mansoni Prx2 activity coupled to TGR/GSH (TGR is thioredoxin glutathione reductase), NADPH fluorescence loss, qHTS; some inactives read as strong as hits. AID 448. actives 0.07% (n = 65,000). Potency, µM; active means full or partial inhibition curve with a strong effect at the top dose; inconclusive means weaker partial or single-point curve; inactive means no accepted curve; also: series up to 57 µM; many of its hits are not listed in these tables
#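 Activity is read as the drop in NADPH fluorescence (365/450 nm), recorded every 30 sec for 8 min after H2O2 addition. Prx2 is coupled to TGR-driven NADPH oxidation through glutathione, in phosphate buffer pH 7.4.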
# The depositor's hits bear a star; ? = inconclusive; . = not tested or not shown; [ ] = dose if it differs, or a comment. Potency is read from the fitted curve at half-maximal effect. This is a subset; the hit share may differ from the screen's.
molecule	Prx2 Sm inh	Anthrax LT inh
CCCC1(C(=O)O)NC(c2ccccc2O)C2C(=O)N(c3cccc(Cl)c3)C(=O)C21 (configuration not stated)	>57	-11%
COc1ccc(OC)c(S(=O)(=O)N2CCN(C34CC5CC(CC(C5)C3)C4)CC2)c1	>57	3%
CCCc1cc(C(=O)NCC(C)C)no1	>57	-7%
CC1CCCCN1C(=O)c1ccc(C(=O)N2CCCCC2C)cc1 (configuration not stated)	>57	-3%
COCCN(CCOC)c1nc(C)nc2c1nc(-c1ccccc1)n2CCN1CCOCC1	.	4%
CCOc1ccc(C(=O)NC2CCN(S(=O)(=O)CC)CC2)cc1	>57	-2%
C=CC(=C)CCC=C(C)C	.	?
Cc1ccc(OCCNS(=O)(=O)c2cccs2)cc1	>57	-8%
c1ccc(Cn2nnnc2CN2CCCC2)cc1	>57	-25%
COc1ccc(C(=O)Nc2cccc(C)c2)cc1S(=O)(=O)N1CCOCC1	>57	15%
COc1ccc(CC(=O)Nc2ccc(-c3nnc(-c4ccc(C)cc4)o3)cc2)cc1	>57	5%
Cc1ccccc1NC(=O)C1CCCN(S(=O)(=O)c2cccc3cccnc23)C1 (configuration not stated)	>57	-11%

# Next records
molecule	Prx2 Sm inh	Anthrax LT inh
COC(=O)c1c(NC(=O)C2CCC2)sc(C(=O)N(C)C)c1C	>57	-2%
COCCCn1c(SCC(=O)Nc2ccc(C(=O)OC)cc2)nc2ccccc2c1=O	>57	-5%
COc1ccccc1-n1c(-c2cccnc2)n[nH]c1=S	>57	?
Cc1nn(-c2ccccc2)c(C)c1NS(=O)(=O)c1ccccc1	>57	4%
C=CCN1C(=O)C(O)(CC(=O)c2ccccc2)c2ccccc21 (configuration not stated)	>57	4%
COc1ccc(-c2nc(C#N)c(NCc3ccc(F)cc3)o2)cc1OC	>57	-3%
COc1ccc(Br)cc1C1NC(=O)c2c(sc3c2CCN(C)C3)N1 (configuration not stated)	>57	14%
O=S(=O)(c1ccc(Cl)cc1)N1CCSC1c1ccco1 (configuration not stated)	>57	-15%
CCOC(=O)c1cccc(NC(=O)C2CCCN2S(=O)(=O)c2cccc3cccnc23)c1 (configuration not stated)	>57	-17%
O=C(COC(=O)CN1C(=O)c2ccccc2C1=O)Nc1ncc(Cl)cc1Cl	>57	-4%
CC(C)(C)NC(=O)C(c1ccco1)N(C(=O)c1csnn1)c1ccccc1 (configuration not stated)	>57	-7%
Cc1ccc(-n2c(SCC(=O)NCc3ccco3)nc3sc(C)c(C)c3c2=O)cc1	>57	10%

# Other structures.
molecule	Prx2 Sm inh	Anthrax LT inh
Nc1nnc(SCCOc2ccccc2)s1	>57	9%
CCN(CCCCN1C(=O)c2ccccc2C1=O)c1ccc2c(c1)C(=O)N(C)C2=O	>57	-1%
O=c1c(-c2ccc(F)cc2)nc2cnc(Oc3ccccc3)nc2n1Cc1cccs1	>57	?
CS(=O)(=O)N(CC(=O)N1CCN(c2ccccc2F)CC1)c1cc(C(F)(F)F)ccc1Cl	.	-22%
CC1(CC(=O)O)SC(=O)NC1=O (configuration not stated)	>57	-17%
Cc1ccc2c(c1)-c1cc(C)nn1C(c1sccc1C)N2 (configuration not stated)	>57	2%
CCCC(=O)N1CCN(C2=NS(=O)(=O)c3ccccc32)CC1	.	-4%
Cn1cccc1Cc1nnc(SCC(=O)N2CCCCCC2)n1CCc1ccccc1	>57	?
CC12CCC(C(=O)N3CCN(Cc4ccccc4)CC3)(OC1=O)C2(C)C (configuration not stated)	>57	?
CN(C)c1ccc(-c2nc(N(C)C)c3ccccc3n2)cc1	>57	?
O=C(NCc1ccco1)c1cnccn1	>57	-6%
NCCCCCCN	.	7%

# Next part:
molecule	Prx2 Sm inh	Anthrax LT inh
CCCCCSc1nnc2c(n1)OC(c1cccn1C)N(C(C)=O)c1ccccc1-2 (configuration not stated)	>57	-13%
CCN(Cc1ccccc1)C(=O)CCCOc1ccccc1	.	-16%
COc1ccc2nc(CC(C)(C)CC(=O)O)c[n+]([O-])c2c1	>57	-12%
C/C(=N/O)[C@@H]1C[C@H](CC(=O)O)C1(C)C	>57	0%[8 µM]
CN(Cc1cccs1)C(=O)CCc1ccc(S(=O)(=O)N2CCOCC2)cc1	>57	-9%
CCN(CC)C(=O)CSc1nc2ccccc2c(=O)[nH]1	>57	.
CCCCCn1c(NCc2ccco2)nc2ccccc21	>57	-25%
COc1ccc(Cl)cc1NC(=O)CSc1nc(N2CCCCC2)nc(N2CCCCC2)n1	>57	.
Cc1c(C(=O)Nc2ccc3oc(-c4cccnc4)nc3c2)oc2ccccc12	>57	-15%
CC(C)=CCC/C(C)=C/C=C/C1=CC2(C)CC1(C)C(/C=C(\C)CCC=C(C)C)CC2=O (configuration not stated)	.	-8%[8 µM]
CC(=O)OCC1OC(C#CCCc2ccccc2)C=CC1OC(C)=O (configuration not stated)	.	-4%[8 µM]
COC(=O)C1=C(C)NC(=O)CC1c1cccc(Cl)c1Cl (configuration not stated)	>57	1%

# Other entries:
molecule	Prx2 Sm inh	Anthrax LT inh
CN1CCN(C(=O)c2c(NC(=O)c3ccco3)sc3c2CCC(C(C)(C)C)C3)CC1 (configuration not stated)	.	-3%
CCC(C)NC(=O)c1cn(CC)c2ccc(S(=O)(=O)N(C)C)cc2c1=O (configuration not stated)	>57	5%
Cc1cc(=O)[nH]c(SCC2(O)C3CC4CC(C3)CC2C4)n1 (configuration not stated)	>57	?
N#Cc1cccc(NC(=O)N2CC[C@@]3(CCCN(C(=O)Oc4ccccc4)C3)C2)c1	>57	-15%
CCOC(=O)c1c(C)oc2c1c(C=NCC1CCCO1)c(O)c1ccccc12 (configuration not stated)	>57	4%
CCCCOC(=O)C(C)Oc1ccc(=O)n(-c2ccccc2)n1 (configuration not stated)	>57	-8%
Cc1ccc(-n2c(=O)cc(NCc3cccnc3)[nH]c2=O)cc1	>57	-5%
O=C(OCC(=O)c1ccc(S(=O)(=O)N2CCCC2)cc1)C1=COCCO1	>57	1%
O=S(=O)(Nc1ccc(N2CCOCC2)nn1)c1ccccc1	>57	0%
Cc1nc2cc(C(=O)N3CCC4(CC3)OCCO4)ccc2n1-c1cccc(F)c1	>57	2%
N#Cc1c(-c2ccccc2)cc(-c2ccco2)c(C#N)c1N	.	?
CCOC(=O)CCCNC(=O)COc1ccccc1C#N	>57	8%

# Next records
molecule	Prx2 Sm inh	Anthrax LT inh
O=C(OCc1ccc2c(c1)OCO2)c1ccc(S(=O)(=O)N2CCCC2)cc1	>57	?
COCC#Cc1ccc(C2C(C)CCC3C(=O)N4C(CCC(C)C4c4ccc(C#CCOC)cc4)C(=O)N32)cc1 (configuration not stated)	.	?
COC(=O)C/C=C/C(C)C(OCc1cccc(-c2ccccc2)c1)C1CCCCC1 (configuration not stated)	.	-2%[8 µM]
COc1ccc(-n2c(C)cc(C(=O)CSc3nn4c(=O)c(C(C)(C)C)nnc4s3)c2C)cc1	>57	-4%
CCCc1noc(-c2ccc(-c3ccccc3)cc2)n1	>57	-10%
CCCCCC1=C2CNC(C)(C(=O)OC)C=C2C(C)C1=O (configuration not stated)	>57	-5%
CCn1c(Cc2ccccc2)nnc1SCC(=O)Nc1nc2ccccc2s1	>57	?
Cc1cc(C)nc(N2CCC(C(=O)NCC3CCCCC3)CC2)n1	>57	-3%
CN(C)CC(C)(C)CN1c2ccccc2Sc2ccccc21	>57	9%[8 µM]
Cc1ccc(C)c(-n2c(N)c(C(N)=O)sc2=S)c1	>57	7%
CCn1cc(CNC(=O)C2C3CCC(C3)C2C(=O)O)cn1 (configuration not stated)	>57	-7%
Cc1ccc2cc(CN(CCN3CCOCC3)Cc3nnnn3Cc3ccco3)c(=O)[nH]c2c1C	>57	-8%

# Continued; the last 4 above are carried over.
molecule	Prx2 Sm inh	Anthrax LT inh
CN(C)CC(C)(C)CN1c2ccccc2Sc2ccccc21	>57	9%[8 µM]
Cc1ccc(C)c(-n2c(N)c(C(N)=O)sc2=S)c1	>57	7%
CCn1cc(CNC(=O)C2C3CCC(C3)C2C(=O)O)cn1 (configuration not stated)	>57	-7%
Cc1ccc2cc(CN(CCN3CCOCC3)Cc3nnnn3Cc3ccco3)c(=O)[nH]c2c1C	>57	-8%
COC(=O)C(C)Sc1ccc2nnc(-c3cccc(F)c3)n2n1 (configuration not stated)	.	19%
c1ccc(-c2cnn3nnnc3n2)cc1	>57	15%
CCCC(=O)NCCc1cc2c(C)ccc(C)c2[nH]c1=O	>57	2%
O=C(CSc1nnc(Cc2ccccc2)o1)NCCc1ccccc1	>57	-2%
Cc1nnc(SCc2nnc(-c3ccccc3Br)o2)n1-c1ccccc1	>57	7%
Cc1cccc(OCCNC(=O)c2ncn[nH]2)c1	>57	-4%
COc1ccc(-c2noc(CCC(=O)N(C)c3cccc(C)c3)n2)cc1	>57	?
COc1ccc(C)cc1NC(=O)c1[nH]c(C)c(C(C)=O)c1C	>57	-2%
Cc1cc(C(=O)OCc2nc3ccccc3s2)c(C)o1	>57	?
O=c1cc(-c2ccccc2)oc2ccccc12	.	2%
Cc1cc2oc(=O)cc(CN3CCN(Cc4ccccc4)CC3)c2cc1Cl	>57	16%
CCOCCn1c(CN2CCC(Cc3ccccc3)CC2)nc2c1c(=O)n(C)c(=O)n2C	>57	2%

# (listing goes on)
molecule	Prx2 Sm inh	Anthrax LT inh
O=C1c2ccccc2C(=O)N1CCn1c(=O)oc2ccccc21	>57	?
Cc1ccc(S(=O)(=O)NCCNC(=O)c2ccccc2)cc1	>57	?
Cc1cc(C)nc(N(C#N)CCOc2ccccc2)n1	>57	6%
CCOC(=O)CNC(=O)c1ccc2[nH]c3c(c2c1)CCCC3	.	?
CCOC(=O)C1CCCN(C(=O)Nc2cccc(Cl)c2)C1 (configuration not stated)	>57	?
O=C(Cn1nnc(-c2ccc(CN3CCOCC3)cc2)n1)N1CCCc2ccccc21	>57	-10%
CC(C)[C@@H](OCc1ccccc1)[C@H](C)/C=N\O[C@@H](C)c1cn([C@@H]2COC[C@@H]2O)nn1	.	-6%[8 µM]
Cc1ccc(S(=O)(=O)Nc2ccc3c(c2)ncn3C(C)(C)C)cc1	>57	-21%
CCn1nnnc1SCC(=O)c1cc(OC)ccc1OC	>57	0%
COc1cccc(Cn2c(=O)c(C)nc3cnc(N4CCNCC4)nc32)c1	>57	?
CC(C)NC(=O)C1CCN(C(=O)c2cc3sccc3n2Cc2ccc(F)cc2)CC1	>57	-5%
CCOC(=O)c1ccc(NC(=O)C2CC2)cc1	>57	7%

# Continued.
molecule	Prx2 Sm inh	Anthrax LT inh
CO[C@@H]1COC(=O)C/C=C\[C@H](C)[C@H](OC)COC(=O)[C@H](C)NC(=O)C/C=C\[C@H]1C	.	7%[1.6 µM]
c1ccc(-c2ccccn2)nc1	>57	3%
CCC(=O)N(Cc1cc2cc(OC)ccc2[nH]c1=O)c1ccccc1C	>57	-8%
Cc1csc2nc(CNC(=O)c3cccc(C(F)(F)F)c3)cn12	>57	3%
c1cn(CCCNc2ncnc3sc4c(c23)CCC4)cn1	.	12%
CCN(c1ccccc1)c1cc(C)nc2ncnn12	>57	-3%
O=C(c1ccc(S(=O)(=O)N2CCCCCC2)cc1)N1CCN(c2ccccn2)CC1	>57	-20%
COCCN1Cc2cccc(C(=O)Nc3cccc(C)c3C)c2C1=O	>57	-5%
COc1ccc(Cc2nnc(SCC(=O)c3ccccc3)o2)cc1	>57	-18%
C=C(C)Cc1c(C)nc(-c2ccccc2)[nH]c1=O	.	-3%
COc1ccc(C(=O)OCCNC(=O)c2c(Cl)nc3ccccn23)cc1	>57	-3%
CNC(=O)c1cc(S(=O)(=O)N(C)C)ccc1Cl	>57	-6%

# Further results follow:
molecule	Prx2 Sm inh	Anthrax LT inh
NCCSc1nc(-c2ccccc2)c(-c2ccccc2)o1	>57	-7%[8 µM]
CC(C)CCOc1cccc(OCC(=O)N(C)C2CCS(=O)(=O)C2)c1 (configuration not stated)	>57	-6%
O=C(O)C1CCCCC1C(=O)NCCc1c[nH]c2ccccc12 (configuration not stated)	>57	-3%
CC(=O)Nc1cc(NC(=O)CCCC(=O)O)ccc1Cl	.	-6%
Cc1cc(N(C)C)cc(C)[n+]1[O-]	.	-5%
COC(=O)c1c(NC(=O)CSc2nnnn2-c2ccc3c(c2)OCO3)sc(C)c1C	>57	-8%
CC(NC(=O)c1ccco1)C(=O)OCc1cccc(Cl)c1 (configuration not stated)	>57	19%
CCN(CCNS(=O)(=O)c1ccc2c(c1)oc(=O)n2C)c1ccccc1	>57	-11%
O=c1cc(-c2ccccc2)nc2nc(CCc3ccccc3)[nH]n12	>57	?
NCC(=O)[C@@H](O)[C@H](O)[C@H](O)CO	>57	-3%[8 µM]
C=CC1=C[C@@H](O)C2OC2C12OCCCO2 (some centres not stated)	.	10%[1.6 µM]
COn1c(SCC(=O)N(C)C)nc2ccccc2c1=O	>57	-16%
COC(=O)[C@@]1(Cc2ccccc2)[C@H]2c3cc(C(=O)N(C)C)n(Cc4cc(F)c(F)c(F)c4)c3C[C@H]2CN1C(=O)c1ccccc1	>11	-8%
CN(C)CCN(Cc1ccccc1)S(=O)(=O)c1cccc2cccnc12	>57	-4%
COCCn1c(C)cc(C(=O)CSc2n[nH]c(N)n2)c1C	>57	-5%

# Screening results (PubChem BioAssay)
